Autofluor counter – compound fluorescence in toxin protease inhibitor counterscreen | compound autofluorescence counterscreen, microsphere flow cytometry; hits give high values | fluorescence intensity (concentration not given with the values) | 360,000 compounds, 3.1% hits | AID 624483;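 active = at least 3 SD above the mean of all compounds, about 16000 in these data; inconclusive = too few beads counted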;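 note: 100 nL of 1 mM stock went into each well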
PrP 5UTR inh – inhibition of PrP 5' UTR reporter expression. cell-based PrP 5' UTR mRNA reporter, plate reader. 340,000 compounds, 0.35% hits. inhibition, % (test concentration not listed);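 active = every replicate at 50% or more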;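 note: 0 = median of the neutral control wells; tested in H4 reporter cells; numbers are from one replicate; inactives centre near -14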
Mtb hypoxia inh – PubChem AID 1159583; 300,000 compounds, 0.1% hits; M. tuberculosis hypoxia-regulated fluorescent reporter, fluorescence; fluorescence inhibition, % (no concentration beside the values);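 active = 35 to 45% if threefold the growth effect, above 45% if 1.5-fold the growth effect; inactive = the rest, general growth blockers included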;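 note: wells of about 50 µL received 100 nL stock; 0% = vehicle wells and 100% = reference inhibitor wells; whole bacteria with a GFP reporter of the hypoxia response; strong numbers were not always called active; many hits fall short of the cut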
BJeLR lethal – MLPCN primary cell-based screen for lethality selective to Ras in HRASV12 cells. BJeLR (HRASV12) viability, CellTiter-Glo ATP luminescence, 48 h; reference of the scale not given here. inhibition, % (test concentration not listed). 300,000 compounds, 0.17% hits;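 active = replicate mean above 50%; inconclusive = above 50% but judged a plate artefact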;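 note: 50 nL library stock added to about 25 µL; numbers are from one replicate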
Sa ugtP lethal – growth inhibition of ugtP-null S. aureus, primary screen, RN4220 ugtP deletion, OD600 | growth inhibition, % (test concentration not listed) | AID 1259309, 2017 | 330,000 compounds, 0.54% hits | 16 h; some inactives read as strong as hits;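 active = z-score under -3 and OD600 up to 0.15 on both plates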;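 note: plate controls were untreated wells for no effect and antibiotic for full effect; wells of about 80 µL received 100 nL stock; the first replicate is given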
Sa RN4220 lethal – growth inhibition of S. aureus RN4220, primary screen, OD600; inhibition, % (no concentration beside the values); 330,000 compounds, 0.33% hits; AID 1259311, 2017; 16 h;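 active = z-score of -3 or lower and OD600 up to 0.18 on both plates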;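 note: plate controls were untreated cells for no effect and reference antibiotic for full effect; stock transfer was 100 nL into about 80 µL; one replicate is shown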
Mtb hypoxia inh growth – also measured in Mtb hypoxia inh; calls as there; growth inhibition, %; measured here: M. tuberculosis growth (absorbance);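 0% = vehicle and 100% = reference antibiotic; read after six days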
The depositor's hits bear a star; u = inconclusive; x = not tested or not shown.

SMILES	Autofluor counter	PrP 5UTR inh	Mtb hypoxia inh	Mtb hypoxia inh growth	BJeLR lethal	Sa ugtP lethal	Sa RN4220 lethal
Cc1nc2cc(-c3cccs3)[nH]n2c(=O)c1C	17502*	-43	7	15	8	-3	4.7
CN(C)c1nc(Nc2ccc(Cl)cc2)nc(OCC#N)n1	4515	2	x	x	-13	-13	-3.5
O=C(NC(Cc1ccccc1)C(=O)O)c1ccncc1 (stereo not drawn)	x	x	-3	10	x	-1	-0.3
Cc1cc(C)c(C(=O)COC(=O)Cn2c(C)csc2=O)cc1C	5096	-23	5	5	5	-1	5.4
CCC(=O)Nc1ccc(Oc2ccc3c(c2)C(=O)NC3=O)cc1	9826	-9	-5	1	-1	-11	-2.6
COc1ccccc1N(C)S(=O)(=O)c1ccc(C)c(C(=O)Nc2nccs2)c1	4968	-13	2	7	-6	4	5.5
Cc1cc(C)cc(C(=O)NCC(=O)OCC(=O)c2cc(C)n(CC(F)(F)F)c2C)c1	2521	-6	-8	-5	-6	3	8.5
Cc1cc(C2C(C#N)=C(N)Oc3n[nH]c(C)c32)c(C)s1 (stereo not drawn)	2163	-21	15	5	-1	15	-3.2
CCOC(=O)Cn1c2c(c(=N)c3ccccc31)CCC2	2804	-5	6	7	-4	-4	-12
CCN(CC)S(=O)(=O)c1ccc(NC(=O)COC(=O)CN2C(=O)c3ccccc3C2=O)cc1	22134*	-21	8	15	-2	0	5.8
Nc1c(Cl)ncnc1NCc1cccnc1	3186	1	4	-7	9	16	2.2
O=C(NC(=S)NCCCN1CCOCC1)c1ccc([N+](=O)[O-])cc1	2340	-21	11	2	1	9	1.3
Cc1ccc(-n2c(-c3ccco3)n[nH]c2=S)cc1	5577	-18	-2	1	-4	7	5.7
CC1=CC(C)(C)N(C(=O)CNC2CCCCC2)c2cc(C)ccc21	4077	-11	-2	-10	1	4	-1.9
CCOC(=O)c1nc(N2CCN(C(=O)OCC)CC2)c2c3c(sc2n1)CCCC3	6697	-13	6	7	-2	-9	5.4
COC(=O)c1cc(NC(=O)C2CC=CCC2C(=O)O)cc(C(=O)OC)c1 (stereo not drawn)	9959	-21	13	9	4	-1	1.4
COc1ccc(CCNC(=O)C2CCCN2C(=O)Nc2ccc(C)cc2)cc1OC (stereo not drawn)	3023	-15	-1	3	-1	8	4.3
COc1cc2c(cc1OC)C(c1cc3cc(C)ccc3[nH]c1=O)N(C(=O)c1ccco1)CC2 (stereo not drawn)	4534	-8	-5	11	0	5	-2.0
O=C1CC(N2CCN(c3ccccc3)CC2)C(=O)N1Cc1ccc(Cl)cc1 (stereo not drawn)	4295	-1	9	6	-6	-4	2.4
c1ccc2c(c1)[nH]c1c(N3CCOCC3)ncnc12	6374	-18	7	-2	4	-6	3.6
COC(=O)c1c(C)oc(C)c1S(=O)(=O)NCC1CC1	4488	-33	-15	-3	4	3	6.1
CC(C)C(NC(=S)Nc1ccccc1)C(=O)O (stereo not drawn)	2212	16	x	x	-12	x	x
C=C(C)CSC1=C(C#N)C(c2ccsc2)CC(=O)N1 (stereo not drawn)	8606	-35	-4	11	x	-3	2.0
CCc1cccc(CC)c1NC(=S)NCCc1ccc(O)c(O)c1	3233	-23	-13	-3	-12	-3	10
C/C(CC(=O)NC12CC3CC(CC(C3)C1)C2)=N\NC(=O)Cc1cccs1	2264	-23	x	x	-1	x	x

Retrieved by structure from above:
SMILES	Autofluor counter	PrP 5UTR inh	Mtb hypoxia inh	Mtb hypoxia inh growth	BJeLR lethal	Sa ugtP lethal	Sa RN4220 lethal
O=C(NC(Cc1ccccc1)C(=O)O)c1ccncc1 (stereo not drawn)	x	x	-3	10	x	-1	-0.3
COc1ccccc1N(C)S(=O)(=O)c1ccc(C)c(C(=O)Nc2nccs2)c1	4968	-13	2	7	-6	4	5.5

(next part)
SMILES	Autofluor counter	PrP 5UTR inh	Mtb hypoxia inh	Mtb hypoxia inh growth	BJeLR lethal	Sa ugtP lethal	Sa RN4220 lethal
O=C1CC(c2ccco2)Cc2nc(Nc3nc(-c4ccccc4)c4ccccc4n3)ncc21 (stereo not drawn)	2625	-26	x	x	10	x	x
CC(C)CC(OC(=O)c1ccco1)C(=O)NC1CCCCC1 (stereo not drawn)	8750	-20	9	9	-3	-1	2.1
Cc1c(O)ccc2c(=O)c(Oc3ccccc3)coc12	4025	-38	-3	-2	-1	6	5.8
Cc1ccc(-n2ccnc(SCC(=O)NC3CCCC3)c2=O)cc1F	5902	-2	-1	7	3	1	2.8
CCN1CCN(S(=O)(=O)c2cccc3nsnc23)CC1	7149	-10	2	-2	4	11	6.7
O=C(Cn1nnc(-c2ccc(Cl)cc2)n1)NCCC1=CCCCC1	8301	-14	10	1	-5	5	-5.5
Cc1nn(Cc2ccccc2)c(C)c1NC(=O)CCCn1nc(C)c([N+](=O)[O-])c1C	6869	22	-4	1	13	1	-7.4
CC(C)NC(=O)NC(=O)COC(=O)c1cccc(OC(F)F)c1	4022	4	2	13	12	3	-2.7
O=C(O)/C=C/C(=O)Nc1ccccc1C(=O)OCC(=O)c1ccc2c(c1)OCCO2	4175	-15	-3	7	x	4	3.8
CCCCSCc1nc2ccccn2c1Br	4649	-20	11	2	18	8	3.0
Cc1ccc(S(=O)(=O)N2CCN(CC(=O)NN=Cc3cc([N+](=O)[O-])ccc3Cl)CC2)cc1	x	x	18	11	x	-5	0.8
CCCN(CC1CC1)C(=O)COC(=O)c1oc2ccc(OCC)cc2c1C	4417	7	-14	-5	x	-1	0.9
COCCN(C(=O)CCc1ccccc1OC)c1nnc(-c2cccnc2)s1	2347	-27	8	4	-2	0	4.2
Cn1c(=O)c2c(nc(CN3CCOCC3)n2CC(O)CO)n(C)c1=O (stereo not drawn)	u	-12	1	0	11	4	5.0
OCCC1CN(Cc2nc(-c3ccccc3)cs2)CCN1C1CCCC1 (stereo not drawn)	4111	-34	-5	-3	-4	13	1.0
COc1ccc(NC(=O)CN2CCC(NC(=O)c3ccco3)CC2)c([N+](=O)[O-])c1	4015	-18	7	5	-12	-1	3.3
CC(C)c1nc(NCCO)c(C#N)c2c1CCCC2	3151	5	5	-12	-3	11	5.0
CCC1=C(OC(=O)N(CC)CC)N2C(=O)OC(=NCC3CC3)[C@]2(C)C2C1=CCC1C(=O)NC(=O)C12 (stereo partly drawn)	x	x	4	7	x	11	7.4
Cc1ccc(OCCCCCCN2CCNCC2)cc1	3054	-46	7	4	12	12	1.4
Cc1ccc2[nH]c3c(=O)n(CC(=O)N4CCN(C)CC4)ncc3c2c1	5908	-5	9	-1	5	1	1.4
COc1ccc(OC)c(-n2c(C)ccc2-c2ccc(S(C)(=O)=O)cc2)c1	2665	-9	x	x	-1	-2	4.4
COc1ccc(/C=C/C(=O)ONC2=NCCCCC2)cc1OC	3990	-22	x	x	-3	x	x
Cc1cc(-c2csc(N)n2)c(C)n1Cc1ccccc1	3620	-22	11	-1	-3	-8	2.2
O=C(Nc1ccn(Cc2ccccc2F)n1)c1ccc(COc2ccccc2Cl)cc1	19484*	20	-1	7	2	-13	-4.5
O=S(=O)(Nc1nnc(C(F)(F)F)s1)c1ccc(Cl)cc1	3464	-15	1	-3	15	8	8.0

Structures shown so far that have a CF3 group, in the order listed:
SMILES	Autofluor counter	PrP 5UTR inh	Mtb hypoxia inh	Mtb hypoxia inh growth	BJeLR lethal	Sa ugtP lethal	Sa RN4220 lethal
Cc1cc(C)cc(C(=O)NCC(=O)OCC(=O)c2cc(C)n(CC(F)(F)F)c2C)c1	2521	-6	-8	-5	-6	3	8.5
O=S(=O)(Nc1nnc(C(F)(F)F)s1)c1ccc(Cl)cc1	3464	-15	1	-3	15	8	8.0

Next section
SMILES	Autofluor counter	PrP 5UTR inh	Mtb hypoxia inh	Mtb hypoxia inh growth	BJeLR lethal	Sa ugtP lethal	Sa RN4220 lethal
Cc1ccc(CCNC(=O)c2nc(CS(=O)(=O)c3ccc(Cl)cc3)no2)cc1	5523	-10	-4	9	13	4	0.5
O=C(CC=NOCc1c(Cl)cccc1Cl)Oc1ccc(Cl)cc1Cl	x	x	15	7	x	8	-5.4
CCOC(=O)C1=C(C)N=C2SCCC(=O)N2[C@@H]1c1cccs1	3737	-4	17	7	-2	-1	3.6
CC1=C(C)C(=O)N(CCC(=O)O)C1=O	20985*	-31	-3	15	-5	-6	0.9
CCOC(=O)CN(C(=O)CSc1nnc2c(n1)[nH]c1ccc(OC)cc12)c1ccc(F)cc1	22990*	1	-9	0	0	-8	0.3
CCOC(=O)c1cnc2c(C)c(-c3ccccc3)[nH]n2c1=O	3057	-18	16	6	-1	0	-9.7
COc1cc(C(=O)NCCCNc2nc3cc(C)c(C)cc3cc2C#N)cc(OC)c1OC	3809	-11	-3	12	-9	2	2.5
CC(C)NC(=S)N1CCC(Cc2ccccc2)CC1	4101	-7	-8	8	3	-1	4.3
CS(=O)(=O)c1ccc2nc(NC(=O)CC3CCCC3)sc2c1	5872	-6	5	2	-8	0	-0.3
COc1ccc(S(=O)(=O)NC(C(C)C)C(C)C)cc1OC	2882	5	x	x	2	-2	6.7
CC(C)c1ccc(CCNC(=O)c2cccc(S(=O)(=O)N3CCN(C)CC3)c2)cc1	5626	5	2	-3	17	2	3.0
Cc1ccsc1C(=O)OCc1nc2ccsc2c(=O)[nH]1	5451	-13	12	8	-5	3	-0.6
CC(=O)n1nc(-c2ccc(C)cc2)nc1NCc1ccco1	3703	-86	13	11	-6	0	2.1
COc1ccc2c(CC(=O)OCC(=O)Nc3ccc(S(N)(=O)=O)cc3)coc2c1	4316	1	4	1	-4	4	9.7
Cc1ccc(C(=O)CSc2nc3ccccc3c(=O)[nH]2)cc1C	4835	-16	7	3	0	-10	7.4
COc1ccccc1N(C)S(=O)(=O)c1ccc(C(=O)OCC(=O)N2CCC2)cc1	2463	-13	2	2	2	-1	14
COc1ccc(OCc2cc(C(=O)NC3CCOCC3)no2)c2ccccc12	5487	-7	6	5	6	2	2.7
CCOc1cc(/C=N/NC(=O)C(C)Sc2ccccc2)ccc1O (stereo not drawn)	3798	-13	x	x	-3	x	x
C=CCN(c1ccccc1)S(=O)(=O)c1cccc(C(=O)Nc2ncccc2C)c1	6965	0	-1	2	-3	3	5.5
Cc1ccc2[nH]c(=O)c(CN(CC3CCCO3)C(=S)Nc3ccccc3)cc2c1 (stereo not drawn)	6635	-25	3	3	-4	7	4.4
CC(=O)Nc1ccc(Nc2cc(C(C)C)nc3c(-c4ccccc4)c(C)nn23)cc1	4636	-15	-14	-7	11	-24	-9.1
COc1ccccc1N1CCN(CC(=O)NCC2CCCO2)CC1 (stereo not drawn)	2423	-5	6	1	4	3	6.1
O=C(Nc1ccc(F)c(Cl)c1)NC1CC1	2776	-10	5	8	-4	-1	7.5
O=C(O)c1ccc(N2C(=O)/C(=C/C=C/c3ccccc3)SC2=S)cc1	2600	3	x	x	-21	x	x
O=C(NC1CCC(O)CC1)c1ccc2c(c1)S(=O)(=O)N=C1CCCCCN12 (stereo not drawn)	5818	-12	8	9	9	2	1.8

(list continues)
SMILES	Autofluor counter	PrP 5UTR inh	Mtb hypoxia inh	Mtb hypoxia inh growth	BJeLR lethal	Sa ugtP lethal	Sa RN4220 lethal
O=C(O)c1ccccc1C(=O)c1ccc(Sc2ccc(Cl)cc2)c([N+](=O)[O-])c1	5805	-19	5	9	-2	-1	7.5
Cc1ccc(S(=O)(=O)NN=Cc2cccc([N+](=O)[O-])c2)cc1	x	x	5	5	x	6	6.6
COCCN(C(=O)CN1CCN(S(=O)(=O)c2ccc(F)cc2)CC1)c1c(N)n(Cc2ccccc2)c(=O)[nH]c1=O	2364	-1	14	2	-10	8	4.8
Cc1ccc(N2CC(C(=O)Nc3cccnc3)CC2=O)cc1C (stereo not drawn)	3801	-17	-4	-6	-6	3	-1.5
CCOc1ccc(C(=O)NCc2ccc3c(c2)OCO3)cc1OCC	x	-12	21	4	0	6	-0.8
Nc1c(Cl)ncnc1N1CCCC1	3414	-19	-1	-2	1	6	4.1
COc1cccc(CCNC(=O)CCc2nnc(Cc3cc(OC)ccc3OC)o2)c1	3654	-13	-1	14	-1	1	2.7
Nc1nonc1-c1nc2ccccc2n1Cc1ccc(F)cc1Cl	3537	-22	-4	-4	0	-4	-2.0
COc1ccccc1CNC(=O)CN(C)S(=O)(=O)c1cccc2cccnc12	4805	-27	-3	3	11	5	2.3
Cc1noc(NS(=O)(=O)c2ccc(NC(=O)CCC3CCCC3)cc2)c1C	3247	-17	17	23	-1	-1	-4.0
Nc1nc(SC23CC4CC(CC(C4)C2)C3)ns1	3930	-22	14	1	-3	12	-0.3

High-throughput results: PubChem, several laboratories
